High-throughput results from PubChem.
miR-21 FLuc: miR-21 reporter, rising signal; HeLa miR-21 FLuc reporter, luciferase, 48 h; Potency, µM (top dose mostly 38.3 µM), for inactives: at the top dose reporter change, positive = more light; 340,000 tested, under 10 active; AID 2288; active = well fitted rising curve with a large enough effect; inconclusive = small, poorly fitted or top-dose-only effect; inactive = no such curve, though single readings can be large or run the other way;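 also: % of control where 0% means no effect; miR-21 action dims this reporter so a rising signal means less miR-21 action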
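HeLa cells stably expressing CMV-driven firefly luciferase with a downstream miR-21 binding sequence, endogenously expressing miR-21, were treated with titrations (up to about 40uM final) for 48 hours at 37 degree Celsius. Luciferase luminescence was read after lysis.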
GLA inh pH 4.5: blocks human alpha-galactosidase A at pH 4.5 | P06280 | purified enzyme, 4-MU-alpha-Gal fluorescence, pH 4.5 | activity change, negative = inhibition, % at 105 µM | 230,000 tested, under 10 active | AID 1467; inconclusive = small, poorly fitted or top-dose-only inhibition, or a rising curve; inactive = flat fitted curve, though single readings scatter; no compound was filed as active;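 also: 0% = full activity with enzyme and -100% = basal without enzyme; dose as in the result columns while the protocol names 77 µM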
Rango release inh: inhibitors of RanGTP-induced Rango-importin beta complex dissociation. Biochemical FRET Rango-importin beta, RanGTP-induced dissociation. Potency, µM (series often up to 46.1 µM), for inactives: at the highest dose activity change, negative = inhibition. 340,000 tested, 0.071% active. AID 540253; active means falling FRET ratio curve, often poorly fitted, with flat reads before Ran was added; inconclusive means other falling curves, or compound fluorescence or quenching; inactive means flat or rising ratio curve;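 also: potency is read from the fitted curve at half-maximal effect; % of control where 0% means no effect; nearly all actives have a fitted effect of over 45% in size; -100% = wells without RanGTP and RCC1; the record marks most hits as doubtful in a second field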
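FRET read at 45 min, room temperature: inhibitors block the CFP/YFP signal rise when RanGTP (0.6 uM Ran, 2 mM GTP, 0.2 uM RCC1) frees Rango (0.1 uM) from importin beta (0.25 uM). Pre-read after 5 min compound exposure flags interference.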
Rango-impB inh: Rango-importin beta binding inhibition; Q14974; Rango CFP/YFP FRET sensor + importin beta, 45 min; Potency, µM (titrated, usually from 92.2 µM), for the others: at the top dose inhibition of complex formation; 340,000 tested, 0.031% active; active = rising FRET ratio curve, often small or poorly fitted; inconclusive = mostly compound fluorescence or quenching in the first reads; inactive = flat curves in all reads;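 also: potency is read from the fitted curve at half-maximal effect; 0% = DMSO wells and 100% = buffer wells lacking importin beta; nearly all actives have a fitted effect of over 15% in size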
Target sequence (Q14974 whole entry, looked up): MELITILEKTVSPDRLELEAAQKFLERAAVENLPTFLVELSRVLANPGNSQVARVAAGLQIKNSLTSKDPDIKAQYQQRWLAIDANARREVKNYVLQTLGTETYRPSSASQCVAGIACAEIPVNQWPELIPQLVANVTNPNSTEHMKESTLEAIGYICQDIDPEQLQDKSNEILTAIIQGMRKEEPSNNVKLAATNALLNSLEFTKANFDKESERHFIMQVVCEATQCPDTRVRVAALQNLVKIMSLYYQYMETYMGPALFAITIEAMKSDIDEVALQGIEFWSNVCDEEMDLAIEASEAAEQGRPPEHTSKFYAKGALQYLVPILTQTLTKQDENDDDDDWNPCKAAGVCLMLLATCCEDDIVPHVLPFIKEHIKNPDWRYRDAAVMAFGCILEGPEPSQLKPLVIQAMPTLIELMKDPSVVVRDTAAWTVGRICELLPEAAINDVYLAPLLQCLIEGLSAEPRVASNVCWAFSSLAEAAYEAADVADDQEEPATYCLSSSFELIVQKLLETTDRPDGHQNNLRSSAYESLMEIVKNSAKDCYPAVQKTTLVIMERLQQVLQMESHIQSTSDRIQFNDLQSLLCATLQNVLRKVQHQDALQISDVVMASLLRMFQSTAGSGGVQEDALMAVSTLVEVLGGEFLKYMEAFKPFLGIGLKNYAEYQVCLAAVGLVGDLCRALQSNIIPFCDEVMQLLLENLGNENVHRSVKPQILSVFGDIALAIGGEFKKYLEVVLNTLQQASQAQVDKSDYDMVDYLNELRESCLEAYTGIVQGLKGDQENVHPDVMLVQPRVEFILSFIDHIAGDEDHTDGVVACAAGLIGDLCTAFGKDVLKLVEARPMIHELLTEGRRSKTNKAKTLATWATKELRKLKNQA
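FRET biosensor Rango (snurportin 1 IBB between N-terminal EYFP and C-terminal Cerulean), 50 nM in PBS/1 mM DTT/0.02% Tween-20/0.1% BSA, preincubated 5 min RT with compound; 0.125 microM importin beta added, 45 min RT, CFP/YFP FRET ratio read.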
An asterisk follows results filed as active; ? = inconclusive; / = no result given; & = joins results of further samples.

Every second line gives: Rango-impB inh, miR-21 FLuc, GLA inh pH 4.5, Rango release inh
1: COc1cc(NC(=O)COC(=O)c2[nH]c(C)c(C(C)=O)c2C)cc(OC)c1
→ -3.1%, /, /, 4%
2: CCN1C(=O)C(CC(=O)Nc2ccccc2)S/C1=N\c1ccccn1 (stereo not drawn)
→ 1.8%, 1%, -5, 12%
3: Cc1cc(NS(=O)(=O)c2ccc(NC(=O)c3ccco3)cc2)no1
→ 2.0%, -8%, 2, 0%
4: O=C1CCC([N+](=O)[O-])C(c2cccc(Cl)c2Cl)N1 (stereo not drawn)
→ 3.7%, 1%, -13, 7%
5: O=C(CSc1nnc(-c2ccc(S(=O)(=O)N3CCCC3)cc2)o1)NCc1ccco1
→ -2.0%, -1%, 7, -13%
6: COc1ccc(-n2c(COc3ccccc3)n[nH]c2=S)cc1
→ 0.2%, -5%, /, -3%
7: Cc1ccccc1NS(=O)(=O)c1ccc(C(=O)NCCCN2CCCC2=O)cc1
→ -4.8%, /, /, 16%
8: O=c1[nH]c(CSc2nnc3ccccn23)nc2ccccc12
→ -1.2%, -3%, -3, 34%
9: COc1cc2c(cc1NC(=S)NC(=O)/C=C/c1ccco1)oc1ccccc12
→ -1.4%, -2%, -6, -7%
10: Cc1ccc(C)c(S(=O)(=O)NCc2ccc(C(=O)N3CCC(Cc4ccccc4)CC3)cc2)c1
→ 4.5%, 18%, -3, -10%
11: O=C(COc1ccc(-c2ccccc2)cc1)N/N=C/c1ccccc1Br
→ 1.0%, -3%, -11, -2%
12: COc1ccc(OC)c(C2(O)CSC(=Nc3cccnc3)N2Cc2ccco2)c1 (stereo not drawn)
→ -3.8%, 7%, 3, -20%
13: CC(=O)Nc1ccc(S(=O)(=O)N(C)Cc2ccccc2)cc1
→ 0.0%, -6%, 7, -7%
14: CC1CCN(C(=O)CNC(=O)c2ccc(Br)o2)CC1
→ 6.7%, /, /, 1%
15: C/C(CC(=O)Nc1cc(C)ccn1)=N\NC(=O)c1cccc(C)c1O
→ -2.5%, -23%, /, 13%
16: Cc1cc(-c2ccccc2)nc(N(C)N)c1S(C)(=O)=O
→ -1.8%, -11%, 9, -11%
17: Cc1nc(-c2ccc(NC(=O)c3ccccc3)cc2)cs1
→ -3.4%, 18%, -6, 1%
18: COC(=O)c1cc(S(=O)(=O)NCC2CCN(Cc3cccc(Cl)c3)CC2)c[nH]1
→ 1.5%, -1%, /, 0%
19: O=C(Nc1nnc(C2CC2)s1)c1cccnc1Oc1ccc(Cl)cc1
→ -1.9%, -13%, 11, 40%
20: Nc1cccc(N=[N+]([O-])c2cccc(N)c2)c1
→ 3.7%, /, /, -3%
21: CN(C)/C=C/C(=O)c1ccc(OCCN(C)c2ccccn2)cc1
→ -3.9%, -10%, /, ?
22: Cc1cc(S(=O)(=O)Nc2ccc(N(C)C)cc2)c(C)s1
→ 2.1%, 0%, 10, 13%
23: Cn1cnnc1SCc1ccc(C(=O)O)cc1
→ 2.9%, -4%, -2, 5%
24: CS(=O)(=O)N(CC(=O)NC1CCCC1)c1cccc(F)c1
→ 5.0%, -1%, -10, -11%
25: Cc1cc(C)cc(NC(=O)c2snc3c(=O)[nH]cnc23)c1
→ /, -2%, -2, /
26: COc1ccc(C(=O)N[C@H](C(=O)NCCCn2nc(C)cc2C)C(C)C)cc1
→ 1.0%, /, /, 16%
27: O=C(COC(=O)c1ccccc1O)Nc1cc([N+](=O)[O-])ccc1Cl
→ -5.3%, -1%, 1, -4%
28: Cc1cccc(C(=O)NC2CCN(S(=O)(=O)c3cccc(F)c3)CC2)c1
→ -1.6%, /, /, -9%
29: N#Cc1cc(-c2ccc(Cl)cc2)cnc1Sc1ccc(F)cc1
→ -0.3%, 0%, 8, 20%
30: COCCCNC(=O)Cc1c(C)c2cc3c(cc2oc1=O)OC(C)(C)CC3
→ -0.4%, 9%, /, 0%
31: CC(C)c1nc2cc(C(=O)NC(c3cccnc3)C(F)(F)F)ccc2o1 (stereo not drawn)
→ 3.9%, -4%, /, 0%
32: CC(=O)Nc1cccc(/C(C)=N/NC(=O)c2ccc(O)cc2)c1
→ -2.3%, -31%, -5, 15%
33: N#C/C(=C\c1cn(Cc2ccccc2C#N)c2ccccc12)C(=O)NCc1cccs1
→ /, -6%, -12, /
34: Cc1cccc(NC(=O)CCC(=O)OCc2ccc(Br)cc2)c1
→ -1.8%, -4%, 6, 13%
35: CCN(CC(=O)NC)S(=O)(=O)c1ccc(C)cc1
→ -0.1%, -1%, -7, -3%
36: O=C1CC(NS(=O)(=O)c2cccs2)CN1c1ccc(Cl)cc1 (stereo not drawn)
→ 1.3%, /, /, 16%
37: O=C1CCc2cc(S(=O)(=O)N3CCN(C(=O)c4ccco4)CC3)ccc2N1
→ 4.5%, -4%, -2, 3%
38: Cc1cc(C)c2c(n1)sc1c(N3CCN(CCO)CC3)ncnc12
→ 2.1%, -16%, 3, -15%
39: O=C(Nc1nnc(SCC(=O)N2CCCCC2)s1)c1c(F)cccc1F
→ 0.8%, 8%, /, 15%
40: C[C@H](CO)N1C[C@H](C)[C@@H](CN(C)S(=O)(=O)c2ccc(F)cc2)Oc2ccc(NS(=O)(=O)c3ccccc3)cc2C1=O
→ -1.7%, /, /, -17%
41: Cc1cc([N+](=O)[O-])cnc1N1CCOCC1
→ 0.4%, -8%, 1, 4%
42: CC(OC(=O)c1ccc2c(=O)n3c(nc2c1)CCCCC3)C(=O)Nc1ncc(Cl)cc1Cl (stereo not drawn)
→ 6.1%, 1%, -2, 11%
43: Cc1n[nH]c(C)c1C(=O)CC1(O)C(=O)N(CCc2ccccc2)c2ccc(Cl)cc21 (stereo not drawn)
→ -1.8%, 7%, -17, 9%
44: COc1ccc(NC(=O)C(=O)Nc2cccc3cccnc23)c(OC)c1
→ 5.3%, 0%, /, -6%
45: CC(NC(=O)COc1ccc(Oc2ccccc2)cc1)C(=O)O (stereo not drawn)
→ 1.2%, -1%, -8, 7%
46: O=C(O)/C=C/c1ccc(OCCCF)cc1
→ -2.6%, -13%, 2, 5%
47: COc1cc2c(cc1OC)C(C(=O)Nc1ccccc1N1CCN(C)CC1)C1c3ccccc3CCN1C2=O (stereo not drawn)
→ -2.4%, 6%, 4, 3%
48: CC1(c2ccccc2)NC(=O)N(NC(=O)CSc2n[nH]c(N)n2)C1=O (stereo not drawn)
→ -2.1%, -3%, 1, -18%
49: Cc1cc(Br)ccc1SCC(=O)OCC(=O)c1c(N)n(C)c(=O)n(C)c1=O
→ 2.5%, -7%, 1, 7%
50: Cc1ccc(/C=N/NC(=O)c2cccc3ccccc23)o1
→ 0.9%, 5%, /, -1%
51: Cc1cc(C(=O)N2CCN(Cc3ccc4c(c3)OCO4)CC2)cs1
→ -1.0%, -7%, 15, 2%
52: COc1cc2c(cc1OC)C1=NC(=O)CN1C(SCc1ccccc1)=N2
→ 5.4%, -1%, 10, -5%
53: CC(=O)Nc1ccc2nc(NC(=O)COc3cccc(C)c3)sc2c1
→ 0.9%, -7%, 0, -12%
54: COc1ccc(C2(C(=O)Nc3c(C)n(C)n(-c4ccccc4)c3=O)CCCC2)cc1OC
→ 1.2%, -4%, 1, 14%
55: O=S(=O)(c1ccc2c(c1)CCN2)N1CCOCC1
→ -1.2%, /, /, 9%
56: COc1ccc(-c2csc(NC(C)=O)n2)cc1OC
→ 0.7%, -28%, -4, -8%
57: Cc1cccc(C(=O)N/C(=C\c2ccco2)C(=O)N2CCCCCC2)c1
→ -0.9%, 1%, /, 9%
58: COc1ccc(/C=N/NC(=O)CCCCCNC(=O)c2ccccc2)cc1
→ 1.1%, -13%, -2, -7%
59: Cc1nnc(SCC(=O)Nc2ccc3c4c(cccc24)CC3)n1C
→ -0.6%, -1%, 5, 8%
60: CN(CCOc1ccc(Cl)cc1)C(=O)c1cccc(S(=O)(=O)N2CCN(c3ccccc3)CC2)c1
→ 0.3%, /, /, -5%

Entries of single compounds from above.
CN(CCOc1ccc(Cl)cc1)C(=O)c1cccc(S(=O)(=O)N2CCN(c3ccccc3)CC2)c1 as listed: Rango-impB inh: 0.3%; miR-21 FLuc: /; GLA inh pH 4.5: /; Rango release inh: -5%
C[C@H](CO)N1C[C@H](C)[C@@H](CN(C)S(=O)(=O)c2ccc(F)cc2)Oc2ccc(NS(=O)(=O)c3ccccc3)cc2C1=O as listed: Rango-impB inh: -1.7%; miR-21 FLuc: /; GLA inh pH 4.5: /; Rango release inh: -17%

(continued)
Every second line gives: Rango-impB inh, miR-21 FLuc, GLA inh pH 4.5, Rango release inh
61: CCOC(=O)c1csc(N/N=C2\CCc3ccccc32)n1
→ -0.7%, -15%, /, -24%
62: O=[N+]([O-])c1ccc(Nc2ccc(F)cc2)cc1
→ 0.6%, -11%, /, -6%
63: COc1cccc(OC)c1C(=O)NN1CCCCC1
→ -0.6%, -1%, -4, -18%
64: COc1ccccc1NC(=O)N1CCC(C(=O)c2ccc(F)cc2)CC1
→ -0.9%, 2%, 6, -8%
65: Cc1ccc(/C=N/NC(=O)CNC(=O)c2ccc(S(=O)(=O)N3CCCC3)cc2)o1
→ -0.8%, 2%, 9, 14%
66: Cc1ccc(C)n1-c1sc2c(c1C(=O)O)CCCC2
→ -2.3%, -3%, 0, -7%
67: Cc1ccc(S(=O)(=O)N2[C@@H](c3cccc(Cl)c3)C(C(=O)O)=CC[C@H]2c2cccc(Cl)c2)cc1
→ 5.2%, /, /, 3%
68: CCOc1ccc(C(C)NC(=S)NC2CCCCC2)cc1 (stereo not drawn)
→ 0.2%, 5%, -6, -15%
69: COc1ccc(OC(C)C(=O)N(C)Cc2nc(-c3ccc(C)cc3)no2)cc1 (stereo not drawn)
→ 5.1%, 25%, /, -8%
70: NC(=O)N/N=C1\CCS(=O)(=O)c2ccc(F)cc21
→ -0.3%, -3%, /, -11%
71: COc1ccc(Nc2nc(N)nc(COc3ccc(OC)cc3)n2)cc1
→ -4.4%, -26%, -3, 3%
72: Cc1ccc(/C=C/C(=O)NCCCN2CCN(CCCNC(=O)/C=C/c3ccc(C)cc3)CC2)cc1
→ -0.9%, -2%, 2, 1%
73: CCn1cc(C(=O)N2CCN(c3ccccc3OC)CC2)c2cc(OC)c(OC)cc2c1=O
→ -0.3%, -2%&-7%, 3, 31%
74: C[n+]1cccc(CNC(=O)/C=N/O)c1
→ -1.0%, -2%, 2, 9%
75: CN(C)c1cc(C(F)(F)F)nc(-c2ccccn2)n1
→ 1.3%, -5%, 1, 22%
76: COc1ccc(CN(C)C(=O)C23CC4CC(CC(C4)C2)C3)c(OC)c1
→ -0.6%, 9%, /, 14%
77: CNS(=O)(=O)c1ccc2nc(NC(=O)c3ccc(N4C(=O)CCC4=O)cc3)sc2c1
→ 0.0%, 2%, 6, -15%
78: Cc1cccc(C)c1NC(=O)CN(C)C(=O)CSC(=S)N1CCCC1
→ -0.8%, /, /, -8%
79: COc1ccc(CCn2nnnc2C(c2ccccc2)N2CCN(C)CC2)cc1OC (stereo not drawn)
→ -2.9%, -6%, -1, 9%
80: C/C(=N\O)C(C)(C)Nc1ccccc1F
→ 0.4%, 0%, 1, 8%
81: CCCCOc1ccc(C2(C(=O)O)CCCC2)cc1
→ -1.3%, -4%, -6, -9%
82: c1ccc(SCc2nc(-c3ccncc3)no2)cc1
→ -1.3%, -39%, -3, -20%
83: O=C(c1ccc(F)cc1F)C1CCN(c2ccc([N+](=O)[O-])cn2)CC1
→ 3.6%, 2%, -7, 5%
84: COCCOC(=O)c1[nH]c2c(c1C)C(=O)C(C(=O)OC)C(C)C2 (stereo not drawn)
→ -0.4%, -28%, 1, -11%
85: CCc1nc(N2CCCCC2)c2oc3ccccc3c2n1
→ -3.5%, 4%, -1, 0%
86: COc1ccc(CCNC(=O)Cc2ccccc2)cc1OC
→ 5.6%, 0%, /, -7%
87: Clc1ccc(OCc2nc(-c3ccccn3)n[nH]2)cc1
→ 2.1%, 20%, 3, 18%
88: CC(C)CCNC(=O)C1CCCN(S(=O)(=O)c2ccc(-n3cnnn3)cc2)C1 (stereo not drawn)
→ 0.4%, -1%, /, 0%
89: CCO[C@H]1OC(C(=O)NCc2ccccc2)=C[C@@H](c2cn(C(C)=O)c3ccccc23)[C@@H]1CCCO
→ 0.0%, 8%, -12, 20%
90: O=C1CN(C(=O)c2cc([N+](=O)[O-])ccc2Cl)C(c2ccc(F)cc2)c2cc(F)ccc2N1 (stereo not drawn)
→ 0.4%, -6%, -3, -3%

These rows are one share of the data; count on the stated rates, not on these rows.
